# Screening data deposited in PubChem by Broad Institute.
# AF4-AF9 inh = inhibitors of AF4 peptide binding to AF9, primary screen, biochemical, AlphaScreen, biotin-AF4 peptide, FLAG-AF9, single point | Protein AF-9 (Homo sapiens), P42568 | inhibition, % at 10 µM | actives 0.47% (n = 350,000);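 active means every replicate reaching a set inhibition limit, whatever the replicate mean, cut at about 25% in these data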;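 further: 0% = plate neutral control median and 100% = total signal loss; the record names both 10 and 1 µM as test concentration; the first replicate is given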
# Target sequence (P42568 whole entry, looked up): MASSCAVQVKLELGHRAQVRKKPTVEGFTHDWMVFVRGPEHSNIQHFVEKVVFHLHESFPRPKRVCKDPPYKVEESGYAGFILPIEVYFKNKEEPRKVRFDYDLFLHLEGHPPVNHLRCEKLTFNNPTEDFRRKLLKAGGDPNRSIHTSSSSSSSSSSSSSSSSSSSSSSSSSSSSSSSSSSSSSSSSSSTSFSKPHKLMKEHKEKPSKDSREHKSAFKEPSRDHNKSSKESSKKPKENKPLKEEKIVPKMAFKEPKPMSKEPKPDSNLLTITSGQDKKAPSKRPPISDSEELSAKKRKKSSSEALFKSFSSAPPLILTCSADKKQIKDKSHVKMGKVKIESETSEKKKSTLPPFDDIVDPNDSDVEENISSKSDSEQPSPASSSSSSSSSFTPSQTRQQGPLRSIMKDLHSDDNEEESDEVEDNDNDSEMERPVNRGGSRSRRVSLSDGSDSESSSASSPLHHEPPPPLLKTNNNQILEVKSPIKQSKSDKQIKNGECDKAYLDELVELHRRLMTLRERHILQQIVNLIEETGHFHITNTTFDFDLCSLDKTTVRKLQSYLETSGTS
# * = called active by the depositor.
SMILES,AF4-AF9 inh
CC(O)CC(=O)OC[C@]12CC[C@H]3[C@@](C)(CC[C@H]4C(C)(C)CCC[C@]34C)[C@@H]1CC(C1=CC(=O)OC1O)O2 (some centres not stated),2.7
N#Cc1ccc(-c2nc3ccc(Cl)cn3c2Cc2cccc(Cl)c2)cc1,-4.6
C[C@H](CO)N1C[C@H](C)[C@H](CN(C)C(=O)NC2CCCCC2)Oc2ncc(C#Cc3ccccc3)cc2C1=O,2.0
Cc1cc(S(=O)(=O)N2CCCCC2CCNC(=O)C(=O)NCCN2CCOCC2)ccc1F (configuration not stated),-0.5
COc1cccc(-c2nnc(NC(=O)CCS(=O)(=O)c3ccc(F)cc3)o2)c1,-3.7
O=C1O[C@H](c2ccccc2)[C@H](c2ccccc2)N2[C@H]1[C@@H](C(=O)N1CCCCCCC1)[C@]1(C(=O)Nc3ccc(C#CC4(O)CCCCCC4)cc31)[C@H]2c1ccccc1OCCO,4.6
C[C@H]1CN([C@@H](C)CO)S(=O)(=O)c2ccc(/C=C/c3ccccc3)cc2O[C@@H]1CN(C)C(=O)CN1CCOCC1,5.8
COc1ccc(-c2cnc3c(c2)C(=O)N([C@H](C)CO)C[C@H](C)[C@H](CN(C)Cc2ccc4c(c2)OCO4)O3)cc1,1.4
CN(Cc1ccccc1)CC1CC(c2ccccc2)OC(c2ccc(NC(=O)CCCCCCC(=O)O)cc2)O1 (configuration not stated),-1.7
OC[C@@H]1CN(Cc2ccc(Cl)cc2)C[C@H](n2cnc3c(NC4CCC4)ncnc32)O1,-1.0
C[C@H](CO)N1C[C@H](C)[C@H](CN(C)S(=O)(=O)c2ccc(F)cc2)Oc2c(NC(=O)Nc3cccc4ccccc34)cccc2C1=O,0.4
O=C(c1ccccc1)N1Cc2ccccc2[C@H]2OC(c3ccc(OCCCO)cc3)=N[C@@]2(CCS(=O)(=O)c2ccccc2)C1=O,1.8
CCOC(=O)[C@]12CCCC=C1N(Cc1ccc3c(c1)OCO3)C(=O)[C@H](CC(=O)N1CCOCC1)C2,0.2
CC(=O)Nc1ccc(CNc2nc3cc(-c4ccsc4)sc3c(=O)n2C)cc1,-0.9
COc1ccc(-c2csc(C(C)(O)c3cccnc3)n2)cc1 (configuration not stated),1.0
COc1ccc(NC(=O)N2CCCCN3[C@@H](CO)[C@H](c4ccc(C#Cc5ccccc5)cc4)[C@@H]3C2)cc1,18.7
C1CCN2CC3CC(CN4CCCC[C@@H]34)[C@H]2C1,-1.4
COc1cc(CNc2nc3ccccc3n2Cc2ccccc2)ccc1O,3.5
CC(C(=O)O)c1cccc(Oc2ccccc2)c1 (configuration not stated),-1.5
CO[C@@H]1CN(C)C(=O)c2cc(NC(=O)C3CCOCC3)ccc2OC[C@@H](C)N(S(=O)(=O)c2ccc(C)cc2)C[C@H]1C,-0.8
CC(C)(C)c1ccc(N2C(=O)CS(=O)(=O)C2c2ccccc2)cc1 (configuration not stated),2.7
O=C([C@H]1O[C@@H](n2ccc(=O)[nH]c2=O)[C@H](O)[C@@H]1O)N(CCC1=CCCCC1)CC1CC1,-0.7
O=C1O[C@@H](c2ccccc2)[C@@H](c2ccccc2)N2[C@@H](c3ccc(OCCO)cc3)[C@]3(C(=O)Nc4ccccc43)[C@@H](C(=O)Nc3nc4ccccc4s3)[C@H]12,-0.3
CN(C)CC#Cc1ccc([C@H]2[C@H](CO)N3CCCCN(C(=O)C4CCCC4)C[C@@H]23)cc1,1.4
COc1cc(C2(C)SCCCS2)cc(OC)c1OC,-0.5
Cc1ccc(F)cc1S(=O)(=O)N[C@H]1CCN(Cc2ccc(OC(C)C)cc2)C1,3.8
CN(C)CC#Cc1cccc(-c2nc(C(=O)NCc3ccc4c(c3)OCO4)cc3c2[C@@H](CCO)N(S(=O)C(C)(C)C)C3)c1 (some centres not stated),5.5
C[C@H](CO)N1C[C@H](C)[C@@H](CN(C)C(=O)Nc2cc(F)ccc2F)Oc2cc(C#CC3CCCC3)ccc2S1(=O)=O,2.6
CCCCNC(=O)c1ccc(C#CC(C)(C)C)c(OC(C)=O)c1,-2.9
C1CCc2c(c(N3CCOCC3)nc3sc4c(N5CCOCC5)nnnc4c23)C1,-2.3
O=C(NC1CCCCC1)C1c2ccccc2OCC(=O)N1Cc1ccccn1 (configuration not stated),1.0
CN1CCN(c2ccc(CNC[C@H]3O[C@@H](n4cnc5c(=O)[nH]c(N)nc54)[C@H](O)[C@@H]3O)c(S(C)(=O)=O)c2)CC1,-2.7
C[C@@H]1CN([C@H](C)CO)S(=O)(=O)c2ccc(C#Cc3ccncc3)cc2O[C@H]1CN(C)S(=O)(=O)c1ccccc1,4.4
Cc1ccc(CCC(=O)Nc2ccc(Cl)cc2Cl)o1,-7.1
CC(C)C[C@@H]1NC(=O)[C@H]2C[C@@H](C(=O)NCc3ccc(F)cc3)[C@@H](c3cccc(OCCO)c3)N2C1=O,-2.2
COc1ccc(CN(C)C[C@H]2Oc3ccc(NC(=O)C4CCCCC4)cc3CC(=O)N([C@H](C)CO)C[C@@H]2C)cc1,3.2
O=C(Nc1ccccc1F)N1CCCCN2[C@H](C1)[C@H](c1ccc(C3=CCCCC3)cc1)[C@@H]2CO,0.6
COCC1OC(OC(C)C(O)c2cnc3nc(N)[nH]c(=O)c3n2)C(O)C(OC)C1O (configuration not stated),8.8
C[C@H](CO)N1C[C@H](C)[C@@H](CN(C)Cc2ccc(F)cc2)Oc2ncc(-c3cccc(C#N)c3)cc2C1=O,3.8
NC(=O)[C@@H]1[C@H]2C(=O)O[C@H](c3ccccc3)[C@H](c3ccccc3)N2[C@H](c2ccc(OCCO)cc2)[C@@]12C(=O)Nc1ccc(C#CC3=CCCCC3)cc12,1.0
OC[C@@H]1CN(Cc2ccccc2)C[C@H](n2cnc3c(NCc4ccc(F)cc4)ncnc32)O1,3.4
COC(=O)c1ccc2nc(-c3ccco3)c(Cc3ccc(OC)cc3C)n2c1,-6.0
O=C1O[C@@H](c2ccccc2)[C@@H](c2ccccc2)N2[C@@H](c3ccc(O)cc3)[C@]3(C(=O)Nc4ccc(C#CCCO)cc43)[C@@H](C(=O)NC[C@H](O)c3ccccc3)[C@H]12,1.2
O=C(c1ccccc1F)N1C[C@@H]2O[C@@H](CNS(=O)(=O)c3ccccc3)CC[C@@H]21,-2.1
COc1cccc(-c2ccc([C@H]3[C@H]4CN(CC5CCOCC5)CCCCN4[C@H]3CO)cc2)c1,1.9
Cn1c(N)c(C(=O)CCc2ccccc2)c(=O)n(C)c1=O,-1.0
O=c1[nH]cc(F)c(=O)n1C1OC(CO)C(O)C1O (configuration not stated),-26.4
COC(=O)c1cn(CCNC(=O)[C@@H](NS(=O)(=O)c2ccc(C)cc2)C(C)C)nn1,-1.7
C=CCN1Cc2ccccc2[C@@H]2OC(c3ccc(OCCCO)cc3)=N[C@]2(CCS(=O)(=O)c2ccccc2)C1=O,1.1
C[C@H]1CN([C@@H](C)CO)C(=O)c2c(c3ccccc3n2C)-c2ccccc2CO[C@@H]1CN(C)Cc1cccc2c1OCCCO2,9.2
CCCCNC(=O)C1c2ccccc2OCC(=O)N1Cc1ccco1 (configuration not stated),-2.1
Cc1ccc(NC(=O)NNC(=O)CSC2CCc3ccccc32)c(C)c1 (configuration not stated),-2.1
N#Cc1ccccc1C[C@H](N)C(=O)NC[C@H]1O[C@@H](n2cnc3c(N)ncnc32)[C@H](O)[C@@H]1O,-1.7
CCOC(=O)C1=C[C@@H](CC)N(S(=O)(=O)c2ccccc2)[C@H]1c1ccccc1,-3.5
O=C(c1[nH]c(C(F)(F)F)nc1-c1ccccc1)N1CCN(c2ncc(C(F)(F)F)cc2Cl)CC1,-2.4
C[C@@H]1CN([C@H](C)CO)S(=O)(=O)c2ccc(C#CCC3CCCC3)cc2O[C@H]1CN(C)Cc1ccc(C(=O)O)cc1,-0.4
COCC#Cc1ccc(CC[C@H]2O[C@H]3CC[C@@H](CO)O[C@H]3C[C@@H]2n2cc(C3CC3)nn2)cc1,0.2
OC(c1ccc(F)cc1)c1nc(-c2csc3ccccc23)cs1 (configuration not stated),-4.1
CCCCCNC(=O)c1[nH]c(C(F)(F)F)nc1-c1ccccc1,-5.7
COc1ccccc1Cc1c(-c2ccccc2)nc2ccc(Cl)cn12,1.5

# Next entries:
SMILES,AF4-AF9 inh
CN(C)C(=O)c1cccc(-c2ccc([C@H]3[C@@H](CO)N4CCCCN(C(=O)C5CCCC5)C[C@@H]34)cc2)c1,-0.8
CCc1ccc2c(c1)NC(=O)C2(C)Cc1ccc(Cl)s1 (configuration not stated),-0.2
O=C(c1ccc(F)cc1)C1CCN(CCCn2c(=O)[nH]c3ccccc32)CC1,2.2
CC(C)N(C)c1ncnc2c1ncn2[C@H]1CN(C2CCCC2)C[C@@H](CO)O1,0.8
Cc1ccc(S[C@]2(C(=O)NC3CC3)CC(=O)N(C3CCCCC3)[C@@H]2c2ccc(CO)cc2I)cc1,-7.9
CCOc1ccc(CCN2C(=S)N([C@@H](Cc3ccc(O)cc3)CN3CCCC3CN3C(=S)NC[C@@H]3Cc3ccc(O)cc3)C[C@@H]2CC(C)C)cc1 (some centres not stated),-0.6
CN(C)C(=O)[C@@]1(Cc2ccccc2)N=C(c2ccc(OCCCO)cc2)O[C@H]1c1ccccc1,4.8
Cn1c(=O)n2n(c1=O)[C@H](C1CC1)C=C1CN3[C@@H]([C@H](Cc4ccccc4)OC(=O)[C@@H]3Cc3ccccc3)[C@@H]12,0.3
C[C@@H]1CN([C@@H](C)CO)C(=O)c2cc(NS(=O)(=O)c3cn(C)cn3)ccc2O[C@@H](C)CCCCO[C@H]1CN(C)C,-11.6
C[C@H]1CN([C@@H](C)CO)S(=O)(=O)c2ccc(-c3ccccc3F)cc2O[C@@H]1CN(C)S(C)(=O)=O,-0.4
C[C@@H]1CN([C@@H](C)CO)C(=O)c2cc(Br)cnc2O[C@@H]1CN(C)Cc1ccc(C(=O)O)cc1,-5.3
O=C(c1ccccc1F)N1C[C@@H]2O[C@H](CNS(=O)(=O)c3ccccc3)CC[C@@H]21,-4.4
COc1ccc(NC(=O)N2CCCCN3[C@H](CO)[C@@H](c4ccc(C5=CCCC5)cc4)[C@H]3C2)cc1,11.7
COc1ccc(-c2nc3ccc(Cl)cn3c2Cc2ccc(C)cc2)cc1OC,7.4
O=C(Nc1cccc(Cl)c1)c1csc([C@@H]2O[C@H](CO)[C@H](O)[C@H](O)[C@H]2O)n1,-1.7
O=C(c1ccccc1)N1Cc2ccccc2[C@H]2OC(c3ccc(OCCCO)cc3)=N[C@@]2(Cc2ccccc2)C1=O,3.9
CC(C)C[C@@H]1NC(=O)[C@@H]2C[C@H](C(=O)O)[C@H](c3cccc(OCCO)c3)N2C1=O,-2.4
COc1ccc(-c2coc3cc(OC)ccc3c2=O)cc1,-1.7
CCOC(=O)N(C)c1c(CC)nc2c(OCc3ccc(Cl)cc3Cl)cccn12,5.7
O=C(NC[C@@H]1CC[C@H]2[C@H](CN2S(=O)(=O)c2ccccc2[N+](=O)[O-])O1)Nc1ccccc1,2.7
COc1ccccc1NC(=O)N[C@@H]1CC[C@@H](CCn2cc(C3(O)CCCC3)nn2)O[C@@H]1CO,-0.2
CCc1nc2ccc(C(=O)NCc3ccccc3OC)cn2c1N(C)Cc1ccc(N(C)C)cc1,26.0*
O=C(C1CC1)N1CCCCN2[C@H](C1)[C@H](c1ccc(C#CC3CC3)cc1)[C@@H]2CO,2.1
CCCCCCCCN1C(=O)[C@H](CC(=O)N2CCN(C(=O)OCC)CC2)C[C@@]2(C(=O)OC)CCCCC=C12,0.2
COc1cccc(S(=O)(=O)Nc2ccc3c(c2)[C@H]2C[C@@H](CC(=O)NC4CCCCC4)O[C@H](CO)[C@H]2O3)c1,21.9
C=CC[C@]1(C(=O)NCC(O)CO)N=C(c2ccc(OCCCO)cc2)O[C@H]1c1ccccc1 (some centres not stated),-2.3
CC(C)C(=O)COc1c2occc2cc2ccc(=O)oc12,-0.3
C[C@H]1CCCCO[C@@H](CN(C)Cc2ccccc2)[C@@H](C)CN([C@@H](C)CO)C(=O)c2cc(NC(=O)CCCN(C)C)ccc2O1,1.0
O=c1c2ccccc2nnn1Cc1ccco1,2.3
Cn1c(=O)c2cc(NC(=O)Cc3ccccc3F)ccc2n1-c1ccc(C(C)(C)C)cc1,-3.5
C[C@@H]1CN([C@H](C)CO)C(=O)c2cc(-c3ccccc3F)cnc2O[C@H]1CN(C)Cc1cccc(F)c1,7.7
CCNC(=O)C1(C)CCN1Cc1cc(-c2ccccc2)n(C)n1 (configuration not stated),-1.6
Cc1c(Cl)cccc1NC(=O)CSc1nc(=O)n(CCCN2CCOCC2)c2c1CCCC2,2.6
Fc1cccc(F)c1C(Nc1nncs1)Nc1nncs1,-5.4

# 12 entries from above, with bars between the fields.
Compound | AF4-AF9 inh
CCc1nc2ccc(C(=O)NCc3ccccc3OC)cn2c1N(C)Cc1ccc(N(C)C)cc1 | 26.0*
O=C(C1CC1)N1CCCCN2[C@H](C1)[C@H](c1ccc(C#CC3CC3)cc1)[C@@H]2CO | 2.1
CCCCCCCCN1C(=O)[C@H](CC(=O)N2CCN(C(=O)OCC)CC2)C[C@@]2(C(=O)OC)CCCCC=C12 | 0.2
COc1cccc(S(=O)(=O)Nc2ccc3c(c2)[C@H]2C[C@@H](CC(=O)NC4CCCCC4)O[C@H](CO)[C@H]2O3)c1 | 21.9
C=CC[C@]1(C(=O)NCC(O)CO)N=C(c2ccc(OCCCO)cc2)O[C@H]1c1ccccc1 (some centres not stated) | -2.3
CC(C)C(=O)COc1c2occc2cc2ccc(=O)oc12 | -0.3
C[C@H]1CCCCO[C@@H](CN(C)Cc2ccccc2)[C@@H](C)CN([C@@H](C)CO)C(=O)c2cc(NC(=O)CCCN(C)C)ccc2O1 | 1.0
O=c1c2ccccc2nnn1Cc1ccco1 | 2.3
Cn1c(=O)c2cc(NC(=O)Cc3ccccc3F)ccc2n1-c1ccc(C(C)(C)C)cc1 | -3.5
C[C@@H]1CN([C@H](C)CO)C(=O)c2cc(-c3ccccc3F)cnc2O[C@H]1CN(C)Cc1cccc(F)c1 | 7.7
CCNC(=O)C1(C)CCN1Cc1cc(-c2ccccc2)n(C)n1 (configuration not stated) | -1.6
Cc1c(Cl)cccc1NC(=O)CSc1nc(=O)n(CCCN2CCOCC2)c2c1CCCC2 | 2.6

# Only part of the results is shown; the hit share may differ from the screen's.
